Calb FLC – C. albicans growth modulation with fluconazole. C. albicans CaCi-2 (fluconazole-resistant clinical isolate) + fluconazole, Alamar Blue growth, 48 h. growth inhibition, % (concentration not given with the values). 0.57% of 300,000 active. AID 1979;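 active = most replicates above 75%; inconclusive = exactly half above 75%; inactive = most below 75%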;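 note: all wells also contain fluconazole at 8 µg/ml as a sub-toxic cotreatment; 0% = median of DMSO wells and 100% = median of geldanamycin control wells; wells of about 8 µL received 7.5 nL stock; the first replicate is given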
HNF4A DNA FP – change in binding of human HNF4 alpha to DNA; 0.3% of 360,000 active; P41235; activity change, % at 10 µM; HNF4a-FITC DNA binding, fluorescence polarization, 1 h; AID 1224865; in the data active = activity change above about 30%, passing the limit was not always enough;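 note: controls were the assay level and a saturating level of protein; the project sought stronger binding though the title names inhibitors; some compounds called inactive have numbers as strong as hits; positive values seem to mean higher polarization but the record does not say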
Target sequence (P41235 whole entry, looked up): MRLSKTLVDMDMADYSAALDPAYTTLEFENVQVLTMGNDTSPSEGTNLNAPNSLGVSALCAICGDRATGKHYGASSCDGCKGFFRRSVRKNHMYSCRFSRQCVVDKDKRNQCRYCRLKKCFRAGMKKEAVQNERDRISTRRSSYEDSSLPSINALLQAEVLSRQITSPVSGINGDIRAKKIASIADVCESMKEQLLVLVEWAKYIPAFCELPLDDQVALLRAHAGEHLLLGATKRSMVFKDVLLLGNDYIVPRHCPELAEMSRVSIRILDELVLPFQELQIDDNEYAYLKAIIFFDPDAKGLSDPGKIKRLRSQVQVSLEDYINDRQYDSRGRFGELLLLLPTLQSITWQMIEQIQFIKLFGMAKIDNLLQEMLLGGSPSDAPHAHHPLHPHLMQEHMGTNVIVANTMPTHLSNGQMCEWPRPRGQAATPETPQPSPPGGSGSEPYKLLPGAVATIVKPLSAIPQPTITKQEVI
ALR inh – inhibitors of human sulfhydryl oxidase ALR | P55789 | purified ALR, DTT oxidation, H2O2 HRP-luminol luminescence | inhibition, % (concentration not given with the values) | 3.8% of 290,000 active | AID 485317;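 active = mean and each replicate at 75% or more; inconclusive = only one of the two met; inactive = neither met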;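 note: stock transfer was 7.5 nL into about 7.5 µL; 0% = neutral wells and 100% = wells with inactivated enzyme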
Target sequence (P55789 whole entry, looked up): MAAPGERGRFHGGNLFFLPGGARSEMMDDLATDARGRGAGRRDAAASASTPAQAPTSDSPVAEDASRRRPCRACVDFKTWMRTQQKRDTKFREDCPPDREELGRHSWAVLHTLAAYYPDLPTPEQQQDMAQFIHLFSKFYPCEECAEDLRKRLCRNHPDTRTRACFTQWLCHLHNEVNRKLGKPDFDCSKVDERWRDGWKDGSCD
RanGTP-Impb inh – disruptors of Ran-importin-beta complex formation – biochemical, FRET, CFP-Ran, YFP-importin-beta, homogeneous, primary screen | cell-free CFP-Ran/YFP-importin-beta FRET ratio | inhibition, % (no concentration beside the values) | 1.1% of 300,000 active;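 active = most replicates above 15%; inconclusive = exactly half above 15%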;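 note: 0% = DMSO wells and 100% = Ran loaded with GDP instead of GTP; wells of about 40 µL received 100 nL stock; the first replicate is given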
B2AR ag – agonists of human beta-2 adrenergic receptor inducing internalization. P07550. Am2.2-beta2AR cells, FAP receptor internalization, flow cytometry; reference of the scale not given here. response, % (test concentration not listed). 0.43% of 340,000 active. AID 504454;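 active = response above a set limit, near 3 SD of response in nonfluorescent compounds, cut at about 42% in these data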;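 note: stock transfer was 100 nL into about 11 µL; a reference agonist was the positive control; negative values mostly stem from fluorescent compounds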
Target sequence (P07550 whole entry, looked up): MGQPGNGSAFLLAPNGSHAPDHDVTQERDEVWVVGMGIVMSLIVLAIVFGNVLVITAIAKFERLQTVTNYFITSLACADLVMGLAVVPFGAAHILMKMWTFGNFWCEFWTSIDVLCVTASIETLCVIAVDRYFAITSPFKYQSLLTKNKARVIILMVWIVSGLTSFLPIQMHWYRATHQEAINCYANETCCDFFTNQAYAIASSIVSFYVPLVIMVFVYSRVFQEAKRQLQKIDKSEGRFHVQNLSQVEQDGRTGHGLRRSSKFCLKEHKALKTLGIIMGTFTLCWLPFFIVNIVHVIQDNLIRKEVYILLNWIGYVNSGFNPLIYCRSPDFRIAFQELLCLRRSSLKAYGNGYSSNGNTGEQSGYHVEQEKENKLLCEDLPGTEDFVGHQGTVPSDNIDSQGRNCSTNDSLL
Vif A3G – inhibitors of Vif binding to APOBEC3G peptide, primary screen, biochemical, TR-FRET, GST-Vif 1-94, biotin-A3G peptide, dose response retest (AID 1117319). TR-FRET GST-Vif / biotin-A3G peptide binding; higher % means a stronger effect; test concentration not given here; strong numbers were not always called active. one-dose inhibition, %; IC50 in µM for titrated hits. 0.57% of 260,000 active;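 active = above the screen mean plus three standard deviations and confirmed in dose response; inconclusive = results disagree or hit not tested in dose response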;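 note: Vif residues 1-94 fused to GST binding biotinylated APOBEC3G peptide 110-148; 0% = full assay without inhibitor and 100% = GST in place of GST-Vif; retest series ran down from 100 µM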
LANA-H2A inh – blocks KSHV LANA binding to histone H2A/H2B. Q9QR71. cell-free LANA-H2A/H2B peptide, fluorescence polarization. inhibition, % (no concentration beside the values). 0.6% of 320,000 active. AID 2629; in the data active = inhibition mostly above about 10%, no sharp cut-off; inactive = mostly below about 6.7%;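 note: stock transfer was 7.5 nL into about 10 µL; 0% = median of vehicle wells and 100% = median of positive control wells; one replicate is shown; the record names a cut of 25% in any replicate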
Active calls of the source: *; u = inconclusive; x = no result given.

SMILES	Calb FLC	HNF4A DNA FP	ALR inh	RanGTP-Impb inh	B2AR ag	Vif A3G	LANA-H2A inh
O=C(NCC(c1cccnc1)N1CCN(c2ccc(F)cc2)CC1)c1cccc(Cl)c1 (stereo not given)	-19	0.9	62	2.2	-4	2%	0.7
O=C(Nc1ccc(Cl)cc1)N1CCC(CO)(Cc2ccccc2)CC1	6	1.7	-6	u	3	-3%	2.8
COC(=O)C(C)(C(=O)OC)c1ccccc1[N+](=O)[O-]	1	3.7	-34	5.7	3	-4%	-4.8
O=C(CSc1nnnn1C1CCCCC1)N1CCc2ccccc21	9	0.0	-6	6.5	-8	-1%	8.9
CCOC(=O)c1nc(C(=O)NCc2ccc(C)cc2)nc2ccccc12	x	-2.9	4	x	-3	x	-0.8
CC(=O)c1ccc2c(c1)OCCOCCOCCOCCO2	-5	-0.1	-17	0.0	3	20%	-0.8
c1cnc2ccc(C(c3nnnn3C3CCCC3)N3CCN4CCCC4C3)cc2c1 (stereo not given)	4	-0.5	-13	4.3	0	1%	-2.5
CC1(C)Oc2ccc3ccc(=O)oc3c2/C(=N/O)C1=O	7	0.9	-8	11	4	0%	2.8
N#CCSc1nc(-c2ccccc2)cs1	-1	-0.2	4	5.1	-11	-1%	-8.7
CCNC(=S)N/N=C(\C)c1ccc2ccccc2c1	-28	x	x	-3.3	x	-9%	0.5
CC(C)(C)C(=O)COC(=O)c1cc(S(=O)(=O)N2CCCCC2)ccc1N1CCOCC1	4	0.3	-2	0.5	-5	-8%	1.1
COC(=O)C1C(=O)NCC1c1ccc(OC)cc1 (stereo not given)	1	-2.5	-1	-0.9	9	0%	1.3
Cc1ccc(NS(=O)(=O)c2c(F)cc(F)c(Cl)c2F)cc1S(=O)(=O)N1CCOCC1	x	-0.2	-1	x	-1	-1%	2.3
Cc1ccc(-c2csc(Nc3ccc(C(=O)O)cc3)[n+]2Cc2ccccc2)cc1	-3	-46	-6	5.9	18	-10%	-0.3
O=C(NCC(=O)N1CCCCC1)c1ccc(Cl)cc1Cl	-8	2.3	0	-2.3	-3	-5%	0.4
COc1ccc2c(c1)c1ncn(Cc3ccc(F)cc3)c(=O)c1n2C	-7	2.0	-5	8.0	5	-58%	-0.9
Cc1cc(=O)oc2cc(NC(=O)C(C)Oc3ccc(F)cc3)ccc12 (stereo not given)	x	-1.4	11	-2.4	-1	-8%	4.2
COC(=O)[C@@H](Cc1ccccc1)NC(=O)NCCc1c[nH]c2ccccc12	-7	1.7	3	1.8	34	-4%	-3.1
CSCC[C@H](NS(=O)(=O)c1ccc(C(C)=O)cc1)c1nnc2ccccn12	-1	-13	-3	-0.1	-7	20%	5.1
Cc1nc(NCc2ccccc2)[nH]c(=O)c1CCC(C)C	29	-0.9	-37	3.8	-9	-2%	-3.7

Only ALR inh and LANA-H2A inh, for 3 of the compounds above:
SMILES | ALR inh | LANA-H2A inh
Cc1ccc(NS(=O)(=O)c2c(F)cc(F)c(Cl)c2F)cc1S(=O)(=O)N1CCOCC1 | -1 | 2.3
Cc1ccc(-c2csc(Nc3ccc(C(=O)O)cc3)[n+]2Cc2ccccc2)cc1 | -6 | -0.3
O=C(NCC(=O)N1CCCCC1)c1ccc(Cl)cc1Cl | 0 | 0.4

Following part
SMILES	Calb FLC	HNF4A DNA FP	ALR inh	RanGTP-Impb inh	B2AR ag	Vif A3G	LANA-H2A inh
CC1=C(C(=O)Nc2cc(C(=O)N3CCN(c4cccc(C)c4C)CC3)ccc2C)SCCO1	23	0.2	-10	0.7	21	x	-0.9
O=C(NCc1ccccc1)c1nnc(CS(=O)(=O)c2ccccc2)o1	-1	-2.9	5	1.2	-4	x	-3.2
COc1ccc(CN(CCC(C)C)S(=O)(=O)c2ccccc2Br)cc1	x	-4.4	x	x	2	-1%	x
O=S(=O)(NCc1cc(-c2ccc(Cl)cc2)no1)c1ccccc1	2	-1.9	-7	6.1	2	-3%	-0.1
Cc1ccc(C(c2sc3nc(C)nn3c2O)N2CCN(c3ccc(F)cc3)CC2)cc1 (stereo not given)	-2	-1.4	2	-1.6	1	-1%	1.7
O=C(O)CCCc1nc(-c2ccc(Cl)cc2)no1	9	-3.0	-24	-4.0	8	6%	2.1
CC(=O)Oc1ccccc1N(C(C)=O)S(=O)(=O)c1ccc2ccccc2c1	5	-0.2	-8	2.1	3	10%	0.3
O=C(NCCc1ccccc1)c1ccc(CS(=O)(=O)Cc2ccccc2F)o1	5	4.1	16	2.0	-3	-1%	2.9
Cn1c(N/N=C2\CCCc3ccccc32)nc2c1c(=O)n(Cc1ccccc1)c(=O)n2C	11	12	x	1.3	11	x	12
COC(=O)[C@@H](NC(=O)Nc1ccc2c(c1)OCCO2)C(C)C	-4	0.1	-2	1.1	1	-3%	-1.8
COc1ccccc1N1CCN(/N=C\c2sccc2C)CC1	u	-2.3	95*	-1.0	-3	x	5.5
O=c1[nH]nc(Cc2ccc([N+](=O)[O-])cc2)c2ccccc12	2	-0.2	-11	0.6	6	-5%	4.6
CCn1c(C)c(C)c2cc(C(=O)NCCCN3CCCC3)ccc21	6	2.8	-1	-1.4	1	x	-4.7
O=C(NCc1ccc2c(c1)OCO2)c1ccc(CSCc2ccccc2Cl)o1	-43	0.1	60	-0.6	0	x	-1.7
Cc1ccc(CN2CC(C(=O)NC3CCCC(C)C3C)CC2=O)cc1 (stereo not given)	x	-5.0	3	x	12	-8%	3.2
CCC1CCC(C(=O)NNC(=O)c2cc(-c3ccco3)[nH]n2)CC1 (stereo not given)	31	-0.3	13	1.0	3	x	1.0
CC(=O)C1=C(O)C(=O)N(c2ccccn2)C1c1cccc(F)c1 (stereo not given)	-1	0.5	14	-2.6	-13	-16%	5.3
CCOc1ccccc1C(=O)Nc1nn[nH]n1	-17	-3.2	3	3.8	-2	-6%	-0.5
CCc1ccc(-c2nc(SCC(=O)N(CCOC)c3c(N)n(Cc4ccccc4)c(=O)[nH]c3=O)n[nH]2)cc1	5	3.6	-8	-2.1	6	x	7.0
Cc1cccc(C)c1NC(=O)CNC(=O)C1COc2ccccc2O1 (stereo not given)	x	0.1	0	x	-26	-2%	1.3
COc1ccc(/C(C)=C2/SC(=S)N(CCC(=O)O)C2=O)cc1	67	4.6	2	-1.9	13	6%	-5.2
CCOC(=O)C1(C(=O)OCC)COC(=O)C2(CC)OC21 (stereo not given)	x	1.1	x	x	1	4%	x
O=c1cc(CSc2nnc(C3CC3)n2Cc2ccccc2)nc2sccn12	-1	-2.0	-8	-0.8	4	-2%	10
O=C(Nn1c(-c2ccccc2)nc2ccccc2c1=O)c1ccc([N+](=O)[O-])cc1	4	3.9	-11	2.5	0	x	-6.3
C/C(Cc1ccccc1)=N\NC(=O)CNC(=O)Cc1ccccc1	-13	0.6	-5	2.5	-6	2%	-5.0
Nc1n[nH]c(N)c1N=Nc1ccc(F)cc1	19	3.5	86*	-1.2	7	-4%	6.5
CCOC(=O)C1=C(O)/C(=C/c2ccc(OCC(=O)O)c(OC)c2)SC1=Nc1ccc(OC)cc1	1	-0.3	44	-0.5	1	12%	6.3
COc1ccc(C(C(=O)NC2CCCC2)N(C(=O)c2ccoc2C)c2ccc(C)c(C)c2)cc1 (stereo not given)	-1	3.6	-3	0.7	5	x	11
O=c1c2ccccc2nc2n1C(CSCc1ccc(Cl)cc1Cl)CS2 (stereo not given)	14	-0.2	14	0.8	-3	32%	1.3
CC(=O)Nc1c(O)nc(SCc2ccccc2C#N)[nH]c1=O	0	0.0	x	-2.3	2	-5%	x
O=S(=O)(CCS(=O)(=O)c1ccccc1)c1ccccc1	x	-3.9	x	x	-2	-6%	x
CC(C)c1nnc(NC(=O)C2CCN(C(=O)Nc3ccccc3)CC2)s1	-5	-0.1	-1	-1.2	-1	x	-2.9
Cc1ccc(-c2nnn(CC(=O)NC3CCN(Cc4ccccc4)CC3)n2)cc1	-8	-1.8	x	u	7	-2%	4.9
C/C(=N/NS(=O)(=O)c1cc(C)ccc1C)c1ccncc1	-12	0.1	-2	2.8	10	x	-1.9
Cn1c(=O)n(C)c2cc(S(=O)(=O)NCC(=O)O)ccc21	-7	-1.8	-2	-0.1	-6	-8%	1.2
O=C(OCc1nnc(-c2ccccc2)o1)c1ccc(S(=O)(=O)NCc2ccco2)cc1	-1	-2.3	2	-1.4	5	12%	0.5
NC(=O)COC(=O)c1c2c(nc3ccccc13)CCCCC2	-17	3.3	37	1.0	1	-9%	-2.4
Cc1ccc(S(=O)(=O)N2CCCC(C(=O)NC3CCCC3)C2)cc1 (stereo not given)	6	0.6	-21	4.7	3	x	-2.5
COc1ccccc1N1CCN(C2CCCN(C(=O)CCc3cnn(C)c3)C2)CC1 (stereo not given)	13	4.1	21	1.0	-3	x	0.3
O=S(=O)(c1cccs1)n1nnc2ccccc21	x	-3.1	-4	u	3	69%	-1.9
C=CCn1c(P(=O)(O)c2ccccc2)nc2ccccc21	25	-0.3	-2	2.6	1	-4%	-1.9
CCCC(=O)N1CCN(c2ccc(NC(=O)c3cc4ccccc4o3)cc2)CC1	x	-1.2	5	x	4	3%	1.7
O=C1c2ccccc2CN1Cc1ccccc1	-11	-3.5	x	-2.1	-8	0%	2.7
O=C(Nc1nc2ccccc2c2nc3ccccc3n12)c1ccc(F)cc1	4	x	-4	-1.0	x	x	-2.0
CC12CCC(C(=O)Nc3ccc(Br)cn3)(OC1=O)C2(C)C (stereo not given)	9	0.1	-3	6.4	5	65%	4.7
O=C(Nc1ccc(Oc2nnc(-c3ccccc3)c3ccccc23)cc1)c1ccccc1	-9	-2.1	-8	-0.2	-9	-18%	-3.7
COc1ccc(C(=O)COC(=O)c2cc(S(=O)(=O)N3CCCCC3)ccc2N2CCOCC2)c(OC)c1	-4	-1.1	-4	x	3	x	1.4
Fc1ccccc1-c1[nH]ncc1-c1nnnn1-c1ccccc1	11	3.0	33	-3.3	7	-10%	-0.3
O=C1C(C=NCc2ccncc2)=C(O)c2ccccc21	-3	-1.5	-30	-0.5	3	5%	5.8
CCc1ccc2nc(NC(=O)CSCc3c(C)noc3C)sc2c1	10	1.1	-4	-5.7	5	-6%	-3.2
COc1cc(C(=O)NNC(=O)c2cccc(Cl)c2)ccc1OCC(=O)N1CCOCC1	x	-1.5	1	x	3	4%	-7.0
Cc1c(OCC(=O)NCC2CCC(C(=O)O)CC2)ccc2c3c(c(=O)oc12)CCC3 (stereo not given)	-2	1.3	x	0.2	-2	x	-4.2
O=C(Nc1ccc(S(=O)(=O)N2CCCCC2)cc1)C1CCN(C(=O)c2ccc(F)cc2)CC1	-2	-0.8	0	5.4	-1	-1%	1.0
O=C(NCC1CCCO1)c1ccc2c3n(nc2c1)-c1ccccc1CO3 (stereo not given)	15	3.1	0	-1.3	-4	x	-0.9
O=c1c(Cc2ccc(F)cc2)c(O)ccn1CCc1cnc[nH]1	-5	6.4	1	0.2	-1	-1%	0.7
O=C(CSc1nnc(Cn2nnc3ccccc32)o1)N(Cc1ccc(Cl)cc1)c1ccccc1	-7	0.4	-13	2.4	4	6%	-1.9
O=C1N/C(=C/c2cccn2-c2ccc(F)cc2)C(=O)N1Cc1ccccc1	0	7.8	-5	u	-14	6%	1.6
C=C(C)COc1ccc(-c2nc(N)ncc2-c2ccc(Cl)cc2)c(O)c1	-5	1.4	-19	0.8	11	-6%	1.0
C[C@@H](C(=O)NCCc1ccc(F)cc1)N1C(=O)N2CCc3c([nH]c4ccccc34)[C@@]2(C)C1=O	18	1.2	-6	-0.2	11	x	0.6
O=C(O)CCCCCNC(=O)c1ccc(Br)cc1	0	-0.6	x	0.7	1	8%	3.5
O=C(CSc1nnc(Nc2ccccc2F)s1)NC(=O)CN1CCCC1=O	x	-6.7	6	x	-1	21%	0.9

Screens (PubChem BioAssay)
